Screening data (PubChem)
KCNQ2 block = KCNQ2 channel blockers in CHO-K1 cells – cell-based, FluxOR thallium flux, B-score, primary screen (AID 2156); O88943; 20 min; active compounds read low; only compounds with negative scores are shown here; some inactives read as strong as hits; B-score at 10 µM; 310,000 tested, 1.1% active;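 active = fluorescence ratio B-score at most minus 3 library SDs, with starting brightness B-score within 2 library SDs, cut at about -5.5 in these data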
Target sequence (O88943 whole entry, looked up): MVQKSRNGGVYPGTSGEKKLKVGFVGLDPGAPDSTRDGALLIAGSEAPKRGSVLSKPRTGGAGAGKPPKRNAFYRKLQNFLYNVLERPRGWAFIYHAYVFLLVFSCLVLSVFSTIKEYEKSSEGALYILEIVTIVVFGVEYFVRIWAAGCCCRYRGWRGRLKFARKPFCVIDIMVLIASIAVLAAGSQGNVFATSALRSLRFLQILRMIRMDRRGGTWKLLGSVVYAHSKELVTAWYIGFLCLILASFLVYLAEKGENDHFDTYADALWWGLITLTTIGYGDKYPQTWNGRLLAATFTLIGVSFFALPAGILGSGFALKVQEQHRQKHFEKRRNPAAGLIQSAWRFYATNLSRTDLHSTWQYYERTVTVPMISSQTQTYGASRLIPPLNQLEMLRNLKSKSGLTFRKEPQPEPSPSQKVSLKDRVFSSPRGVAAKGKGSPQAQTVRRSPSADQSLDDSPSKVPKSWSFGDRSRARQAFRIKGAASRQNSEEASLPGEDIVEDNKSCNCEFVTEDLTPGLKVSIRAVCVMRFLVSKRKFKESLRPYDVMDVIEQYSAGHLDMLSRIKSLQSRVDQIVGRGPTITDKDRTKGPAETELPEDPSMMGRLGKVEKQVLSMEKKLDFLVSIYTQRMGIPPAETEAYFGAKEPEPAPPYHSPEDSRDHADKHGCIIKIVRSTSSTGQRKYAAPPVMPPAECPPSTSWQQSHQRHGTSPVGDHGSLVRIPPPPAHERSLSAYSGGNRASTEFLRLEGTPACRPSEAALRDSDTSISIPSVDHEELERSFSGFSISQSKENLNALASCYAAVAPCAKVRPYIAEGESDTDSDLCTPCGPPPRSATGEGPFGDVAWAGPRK
KCNQ2 block baseline = recorded beside KCNQ2 block, whose call it bears; B-score; measured here: initial fluorescence intensity artifact check;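 brightness before thallium and not channel activity; 0 = typical well and far values either way flag optical interference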
Active calls of the source: *; i = inactive. Some of the compounds tested, so the mix of outcomes need not match the whole.

#1 Cc1[nH]c(=O)[nH]c(=O)c1/C=C/C(=O)O
#2 Cn1c(/C=C/c2cccc(Br)c2)nc2ccccc2c1=O
#3 CC(C)NC(=O)c1onc(CSc2ccc(F)c(F)c2)c1C(=O)NC(C)C
#4 COC(=O)C1=C(C)N(CCCC(=O)O)C(=O)NC1c1ccc2c(c1)OCO2 (stereo not given)
#5 Cc1cc(F)ccc1NCC(=O)Nc1ccccc1Br
#6 Cc1cccc(NC(=O)Cn2nc([N+](=O)[O-])c(Br)c2C)n1
#7 O=C(CCCn1c(=S)[nH]c2cc3c(cc2c1=O)OCO3)N1CCc2ccccc2C1
#8 CCOC(=O)CSc1nnc(NC(=O)c2cc([N+](=O)[O-])cc([N+](=O)[O-])c2)s1

entry no.	1	2	3	4	5	6	7	8
KCNQ2 block baseline	1.04	-1.61	-0.48	1.61	1.29	-0.5	0.21	-1
KCNQ2 block	i	i	i	i	i	i	i	i

#9 O=c1c2ccccc2nc(-c2ccccc2)n1CCN1CCOCC1
#10 NNc1nc(N)c2c(n1)-c1ccccc1CC21CCCC1
#11 CC(Sc1nc(C(C)(C)C)cc(-c2ccccc2)c1C#N)C(=O)Nc1ccccc1 (stereo not given)
#12 Cc1c(CC(=O)NCC(=O)O)c(=O)oc2cc3occ(-c4ccccc4)c3cc12
#13 CCOC(=O)C1(Cc2ccccc2)CCCN(CCO)C1 (stereo not given)
#14 CSCCOC(=O)COc1ccc(/C=N/NC(=O)c2nn(C)cc2Cl)cc1
#15 COc1ccc2cc(Br)ccc2c1CC(=O)N(C)C
#16 CCC(Sc1ncccc1C(=O)Oc1cccc([N+](=O)[O-])c1)C(=O)Nc1ccccc1OC (stereo not given)

entry no.	9	10	11	12	13	14	15	16
KCNQ2 block baseline	0.41	1.74	-0.06	-1.6	-1.34	-1.47	-0.74	-0.25
KCNQ2 block	i	i	i	i	i	i	i	i

#17 COC(=O)c1ccc(C(NC(=O)OCc2ccccc2)/C(F)=C/[C@@H](C)C(=O)O)cc1 (stereo not given in full)
#18 Clc1ccc(C2[C@H]3CN(CC4CCCCC4)[C@H](c4ccccc4)C34CC2(c2cccnc2)C4)cn1 (stereo not given in full)
#19 COc1ccc(NC(C)C(=O)Nc2cc(C(F)(F)F)ccc2N2CCOCC2)c(OC)c1 (stereo not given)
#20 COc1ccc(N(CC(=O)NC2CCCC2)C(=O)Cn2nnc(-c3ccc(OC)c(OC)c3)n2)c(OC)c1
#21 C/C(=N\NC(=O)c1cccc([N+](=O)[O-])c1)c1ccco1
#22 CCOC(=O)c1c(NC(=O)c2cccs2)sc(C(=O)N(C)C)c1C
#23 CCOc1ccc(OCC)c(NC(=O)CCS(=O)(=O)c2ccc(C)cc2)c1
#24 Cc1sc2ncnc(N3CCC(C(=O)Nc4ccc(Cl)cc4Cl)CC3)c2c1C

entry no.	17	18	19	20	21	22	23	24
KCNQ2 block baseline	0.33	-1.71	-0.02	-1.6	-1.15	-0.21	-1.15	-1.72
KCNQ2 block	i	i	i	i	i	i	i	i

#25 Cc1cc(C)nc(SCCn2c(N3CCOCC3)nc3c2c(=O)[nH]c(=O)n3C)n1
#26 CCOc1ccc(OCCC(=O)OCC(=O)c2c(N)n(C)c(=O)n(C)c2=O)cc1
#27 CCN(CCS(=O)(=O)c1ccc(Cl)cc1)C(=O)Nc1ccc(Cl)cc1
#28 COc1ccc(CN(C(=O)c2snc(C(N)=O)c2N)C(C)C(=O)NCc2ccc(F)cc2)cc1 (stereo not given)
#29 COc1ccc(NC(=O)Cc2nnc(SCC(=O)c3ccccc3)n2C)cc1
#30 CC(=O)c1cc2c(cc1NC(=O)CN1Cc3ccccc3C1=O)OCO2
#31 COC(=O)CCS(=O)(=O)c1ccc(Cl)c(Cl)c1
#32 Clc1ccc(-n2nnnc2-c2cnc3ccccc3c2-c2ccccc2)cc1

entry no.	25	26	27	28	29	30	31	32
KCNQ2 block baseline	1.32	-0.14	-0.48	1.15	1.87	-0.93	1.07	-0.81
KCNQ2 block	i	i	i	i	i	i	i	i

#33 Cn1c(SCC(=O)NCc2ccc3c(c2)OCO3)ncc(C(=O)Nc2ccc(F)cc2)c1=O
#34 O=C(Nc1cc(S(=O)(=O)N2CCOCC2)ccc1N1CCCCC1)c1cc(-c2ccccn2)nc2ccccc12
#35 COc1ccc(OC)c(Nc2ncnc3ccc(Br)cc23)c1
#36 Cc1cccc(NC(=O)Cn2cnc3ccc(S(=O)(=O)N4CCC(C)CC4)cc3c2=O)n1
#37 COc1ccc(N2CC(C(=O)N/N=C/c3ccc(C)cc3)CC2=O)cc1 (stereo not given)
#38 CCn1c(=NC(=O)COc2ccccc2)sc2cccc(F)c21
#39 CCN1C(=O)c2ccc(C(=O)O)cc2C1=O
#40 CC(C)CCOCC1CC2(CC(C)(c3csc(N)n3)OC2=O)C(=O)O1 (stereo not given)

entry no.	33	34	35	36	37	38	39	40
KCNQ2 block baseline	-2.69	-1.9	-0.72	0.07	0.03	-0.71	0.3	0.15
KCNQ2 block	i	i	i	i	i	i	i	i

#41 COc1cccc(-c2nn(-c3ccc(C)cc3)cc2C(=O)NCC2CCCO2)c1 (stereo not given)
#42 Cc1c(-c2ccccc2)nc(N)c(C#N)c1-c1cccs1
#43 CC(=O)N1CCCN(C(=O)c2cc(COc3c(F)cccc3F)on2)CC1
#44 COC(=O)Cc1c(C)nc2nc(Cc3ccccc3)[nH]n2c1=O
#45 CN(C(=O)c1cc([N+](=O)[O-])ccc1NCc1cccnc1)c1ccccc1
#46 CCC(Sc1nc(C)cc(C)n1)C(=O)NC1=NN=C(c2ccc(C)cc2)CS1 (stereo not given)
#47 Cc1c(-c2ccccc2)oc2c(C(=O)OCC(=O)Nc3ccc(C(N)=O)cc3)cccc2c1=O
#48 COc1ccc(/C=C/C(=O)NCCCN2CCOCC2)cc1

entry no.	41	42	43	44	45	46	47	48
KCNQ2 block baseline	-1.74	0.69	0.36	1.85	2.07	0.23	0.9	0.79
KCNQ2 block	i	i	i	i	i	i	i	i

#49 COc1cc(/C=N/NC(N)=O)ccc1OCC(=O)Nc1ccc(C)c(C)c1
#50 C=C(C)CNC(=S)N1CCN(C(c2ccccc2)c2ccccc2)CC1
#51 Cc1cc(C)nc(N/N=C/c2ccc3c(c2)OCCO3)n1
#52 COC(=O)c1cc(C(=O)OC)n(Cc2ccc(C)cc2)c1C
#53 NC(=O)c1ccccc1N=Cc1ccc2ccccc2c1
#54 Cc1cc(C)nc(N/N=C/c2sccc2C)n1
#55 O=C(NCCCn1ccnc1)c1cn(-c2ccccc2)nc1-c1ccccc1
#56 Cc1cc(Cl)ccc1C(=O)C1CCCN(C(=O)c2cccc(N3CCCC3=O)c2)C1 (stereo not given)

entry no.	49	50	51	52	53	54	55	56
KCNQ2 block baseline	1.81	0.7	1.14	-1.23	-1.81	-0.02	1.82	-0.03
KCNQ2 block	i	i	i	i	i	i	i	i

#57 CC(C(=O)c1ccc(Br)cc1)[n+]1cccc2ccccc21 (stereo not given)
#58 CC(=O)Nc1ccc(S(=O)(=O)N2CCN(c3nnnn3-c3ccccc3)CC2)cc1
#59 O=S(=O)(Nc1nc2ccccc2nc1NCCN1CCOCC1)c1cccc(Cl)c1
#60 O=C(NNC(=O)C1CCCCC1)c1cnccn1
#61 CC(C)(C)C(=O)OCc1nc(-c2ccc(C(F)(F)F)cc2)cs1
#62 COC(=O)c1cc(S(=O)(=O)NCCc2cccc(C)c2)cn1C
#63 COc1ccc(/C=C2\COc3ccccc3C2=O)cc1OC
#64 CCC(C(=O)NCc1cccnc1)c1ccccc1 (stereo not given)

entry no.	57	58	59	60	61	62	63	64
KCNQ2 block baseline	1.9	-0.12	-1.5	0.73	0.02*	1.26	-0.6	0.02
KCNQ2 block	i	i	i	i	-5.59*	i	i	i

#65 CN(C)c1ncc(C2=C(Cl)C(=O)C(N3CCCC3)=C(Cl)C2=O)s1
#66 Cc1[nH]n(-c2ccccc2)c(=O)c1N=Nc1ccc2c(c1)OCO2
#67 COc1ccc(C(=O)Nc2ccc(C(=O)N3CCCCC3C)cc2)c(OC)c1OC (stereo not given)
#68 O=c1c2sccc2nc(SCc2cc(=O)n3ccccc3n2)n1Cc1ccccn1
#69 Cn1c(/C=N/c2nc3ccccc3[nH]2)nc2ccccc21
#70 COc1ccc2[nH]cc(/C=C/c3cc[n+](C)cc3)c2c1
#71 O=C(NC1CCCCC1)C1CCN(S(=O)(=O)N2CCOCC2)CC1
#72 CCOc1ccccc1OCCOCCN1CC(C)OC(C)C1 (stereo not given)

entry no.	65	66	67	68	69	70	71	72
KCNQ2 block baseline	-8.79*	0.29	0.95	-0.47	-0.59	5.68	-1.1	-1.43
KCNQ2 block	-8.64*	i	i	i	i	i	i	i

#73 N#CCCn1cc(C(=O)Nc2ccc(C(=O)O)cc2)c(-c2cccs2)n1
#74 COc1ccc(C(=O)N/N=C\c2coc3ccc(C)cc3c2=O)cc1
#75 CCOc1ccc(NC(=O)CN(C)C(=O)c2c(C)noc2C)cc1OCC
#76 CCn1c(NC(=O)Nc2cccc(C)c2C)cc2sccc21
#77 Cc1ccc(CN2CCN(Cc3ccon3)CC2CCO)cc1 (stereo not given)
#78 CC(=O)N1c2ccc(S(=O)(=O)N3CCCC3C(=O)Nc3ccc(C)cc3)cc2CC1C (stereo not given)
#79 O=C(c1ccc(N2CCCC2)c([N+](=O)[O-])c1)N1CCN(CCO)CC1
#80 CCN(CC)c1ccc(/C=N/NC(=O)c2cc3ccccc3[nH]2)cc1

entry no.	73	74	75	76	77	78	79	80
KCNQ2 block baseline	-1.63	2.66	-1.78	-0.47	1.5	-0.65	1.36	-0.14
KCNQ2 block	i	i	i	i	i	i	i	i

#81 Cc1cc(OCC(=O)OCC(=O)Nc2cc(C(F)(F)F)ccc2N2CCOCC2)ccc1Cl
#82 CC1CN(c2nc3ccccn3c(=O)c2/C=C(\C#N)C(=O)N2CCOCC2)CC(C)O1 (stereo not given)
#83 O=C(CN1CCN(c2ccc(F)cc2)CC1)Nc1nnc(-c2ccccc2)s1
#84 Cc1cccc(NCc2n[nH]c(=S)n2-c2ccccc2)c1

entry no.	81	82	83	84
KCNQ2 block baseline	1.04	1.65	1.38	-0.77
KCNQ2 block	i	i	i	i

Not a retest: entries from further up.
#4 COC(=O)C1=C(C)N(CCCC(=O)O)C(=O)NC1c1ccc2c(c1)OCO2 (stereo not given)
#5 Cc1cc(F)ccc1NCC(=O)Nc1ccccc1Br
#6 Cc1cccc(NC(=O)Cn2nc([N+](=O)[O-])c(Br)c2C)n1
#7 O=C(CCCn1c(=S)[nH]c2cc3c(cc2c1=O)OCO3)N1CCc2ccccc2C1
#8 CCOC(=O)CSc1nnc(NC(=O)c2cc([N+](=O)[O-])cc([N+](=O)[O-])c2)s1
#9 O=c1c2ccccc2nc(-c2ccccc2)n1CCN1CCOCC1
#10 NNc1nc(N)c2c(n1)-c1ccccc1CC21CCCC1
#11 CC(Sc1nc(C(C)(C)C)cc(-c2ccccc2)c1C#N)C(=O)Nc1ccccc1 (stereo not given)
#12 Cc1c(CC(=O)NCC(=O)O)c(=O)oc2cc3occ(-c4ccccc4)c3cc12
#13 CCOC(=O)C1(Cc2ccccc2)CCCN(CCO)C1 (stereo not given)

entry no.	4	5	6	7	8	9	10	11	12	13
KCNQ2 block baseline	1.61	1.29	-0.5	0.21	-1	0.41	1.74	-0.06	-1.6	-1.34
KCNQ2 block	i	i	i	i	i	i	i	i	i	i

#14 CSCCOC(=O)COc1ccc(/C=N/NC(=O)c2nn(C)cc2Cl)cc1
#15 COc1ccc2cc(Br)ccc2c1CC(=O)N(C)C
#16 CCC(Sc1ncccc1C(=O)Oc1cccc([N+](=O)[O-])c1)C(=O)Nc1ccccc1OC (stereo not given)
#17 COC(=O)c1ccc(C(NC(=O)OCc2ccccc2)/C(F)=C/[C@@H](C)C(=O)O)cc1 (stereo not given in full)
#18 Clc1ccc(C2[C@H]3CN(CC4CCCCC4)[C@H](c4ccccc4)C34CC2(c2cccnc2)C4)cn1 (stereo not given in full)
#19 COc1ccc(NC(C)C(=O)Nc2cc(C(F)(F)F)ccc2N2CCOCC2)c(OC)c1 (stereo not given)
#20 COc1ccc(N(CC(=O)NC2CCCC2)C(=O)Cn2nnc(-c3ccc(OC)c(OC)c3)n2)c(OC)c1
#21 C/C(=N\NC(=O)c1cccc([N+](=O)[O-])c1)c1ccco1

entry no.	14	15	16	17	18	19	20	21
KCNQ2 block baseline	-1.47	-0.74	-0.25	0.33	-1.71	-0.02	-1.6	-1.15
KCNQ2 block	i	i	i	i	i	i	i	i
